Screening results: PubChem BioAssay, several laboratories
Beta cell apopt: beta cell apoptosis inhibition | INS-1E cytokine-induced death, ATP luminescence, 48 h; percent of positive-control rescue, neutral wells zero | protection from apoptosis, % (no concentration beside the values) | 300,000 tested, 0.8% active | AID 435005;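 active = all replicates at 75% or more, or half of them and the mean; inconclusive = half reach 75% but not the mean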;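 also: 0% = cytokine-treated negative control wells and 100% = positive control rescue; higher means more ATP so stronger rescue from cytokine killing; wells of about 40 µL received 100 nL stock; the first replicate is given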
A1 inh: inhibitors of the anti-apoptotic protein A1, read as caspase activation. 330,000 tested, 0.066% active. caspase activation, % (no concentration beside the values). AID 2462. MEF A1-2A-BIM cells, Caspase-Glo 3/7 luminescence, 3 h; percent of clofoctol response, vehicle zero;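 active = over half of replicate activation scores above 10%, or exactly half above 10 with the replicate mean above 10; inconclusive = replicate mean below 10 yet half the replicates above 10; inactive = over half of replicates below 10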;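 also: wells of about 30 µL received 50 nL stock; many hits fall short of the cut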
Calb FLC: C. albicans growth modulation with fluconazole | C. albicans CaCi-2 (fluconazole-resistant clinical isolate) + fluconazole, Alamar Blue growth, 48 h | growth inhibition, % (test concentration not listed) | 300,000 tested, 0.57% active;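 active = most replicates above 75%; inconclusive = exactly half above 75%; inactive = most below 75%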;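 also: all wells also contain fluconazole at 8 µg/ml as a sub-toxic cotreatment; 0% = median of DMSO wells and 100% = median of geldanamycin control wells; wells of about 8 µL received 7.5 nL stock; the first replicate is given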
RanGTP-Impb inh: disruptors of Ran-importin-beta complex formation – biochemical, FRET, CFP-Ran, YFP-importin-beta, homogeneous, primary screen; cell-free CFP-Ran/YFP-importin-beta FRET ratio; inhibition, % (no concentration beside the values); 300,000 tested, 1.1% active;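 active = most replicates above 15%; inconclusive = exactly half above 15%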;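 also: 0% = DMSO wells and 100% = Ran loaded with GDP instead of GTP; wells of about 40 µL received 100 nL stock; the first replicate is given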
LANA-H2A inh: blocks KSHV LANA binding to histone H2A/H2B. Q9QR71. cell-free LANA-H2A/H2B peptide, fluorescence polarization. inhibition, % (test concentration not listed). 320,000 tested, 0.6% active; in the data active = inhibition mostly above about 10%, no sharp cut-off; inactive = mostly below about 6.7%;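 also: stock transfer was 7.5 nL into about 10 µL; 0% = median of vehicle wells and 100% = median of positive control wells; one replicate is shown; the record names a cut of 25% in any replicate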
B2AR ag: agonists of human beta-2 adrenergic receptor inducing internalization | response, % (concentration not given with the values) | Am2.2-beta2AR cells, FAP receptor internalization, flow cytometry; reference of the scale not given here | 340,000 tested, 0.43% active | P07550;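 active = response above a set limit, near 3 SD of response in nonfluorescent compounds, cut at about 42% in these data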;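 also: stock transfer was 100 nL into about 11 µL; a reference agonist was the positive control; negative values mostly stem from fluorescent compounds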
Target sequence (P07550 whole entry, looked up): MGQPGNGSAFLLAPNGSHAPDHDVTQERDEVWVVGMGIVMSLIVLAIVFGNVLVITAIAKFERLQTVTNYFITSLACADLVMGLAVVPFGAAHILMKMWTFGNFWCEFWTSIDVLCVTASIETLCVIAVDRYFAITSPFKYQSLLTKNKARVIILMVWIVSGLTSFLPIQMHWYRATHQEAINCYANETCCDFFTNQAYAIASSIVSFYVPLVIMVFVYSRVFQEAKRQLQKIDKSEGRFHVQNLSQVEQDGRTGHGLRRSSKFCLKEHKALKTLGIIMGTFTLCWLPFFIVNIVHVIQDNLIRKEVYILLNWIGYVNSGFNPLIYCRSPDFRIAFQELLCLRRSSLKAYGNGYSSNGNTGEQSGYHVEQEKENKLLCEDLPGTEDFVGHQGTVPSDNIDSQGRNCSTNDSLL
UCH37 inh: human UCH37 deubiquitinating enzyme inhibition; Q9Y5K5; purified proteasome/UCH37, Ub-AMC cleavage fluorescence; inhibition, % (no concentration beside the values); 330,000 tested, 0.33% active; AID 588478;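 active = mean of two replicates above 20%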;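 also: 0% = compound-free wells with enzyme and 100% = wells lacking proteasome; stock transfer was 100 nL into about 20 µL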
Target sequence (Q9Y5K5 whole entry, looked up): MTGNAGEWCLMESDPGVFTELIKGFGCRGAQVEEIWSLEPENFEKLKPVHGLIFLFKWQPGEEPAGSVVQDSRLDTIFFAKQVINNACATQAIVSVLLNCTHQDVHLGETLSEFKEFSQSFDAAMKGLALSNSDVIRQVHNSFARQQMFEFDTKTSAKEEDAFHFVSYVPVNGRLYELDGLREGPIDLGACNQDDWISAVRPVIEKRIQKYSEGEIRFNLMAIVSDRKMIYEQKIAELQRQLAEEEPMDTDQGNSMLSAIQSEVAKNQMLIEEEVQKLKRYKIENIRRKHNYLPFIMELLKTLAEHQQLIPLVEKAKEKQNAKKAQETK
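Reagent: Ub-AMC substrate; assay system: Proteasome-associated human UCH37 deubiquitinase; controls: no-proteasome and no-compound wells; read-out: % inhibition of Ub-AMC cleavage fluorescence; timing: 30 min preincubation with enzyme, 25 min cleavage at room temperature; signal: AMC fluorescence from Ub-AMC cleavage, excitation 355 nm, emission 460 nm; buffer or medium: Tris-HCl pH 7.4 plus ovalbumin, ATP-MgCl2, DTT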
T cruzi repl: T. cruzi replication inhibition. T. cruzi beta-gal in NIH3T3, luminescence, 90 h. inhibition, % (concentration not given with the values). 300,000 tested, 1.4% active;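 active = mean inhibition across valid replicates above about 55%, limit read from the data; inconclusive = mean below that limit but half or more replicates reach it; inactive = mean below it, under half of replicates reach it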;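 also: signal also drops with host cell toxicity which is not excluded here; 0% = plate median of DMSO wells and 100% = zero luminescence signal; higher percent means less beta-gal luminescence so fewer parasites; stock transfer was 50 nL into about 50 µL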
Numbers without * were called inactive. Compounds were not picked by outcome; any-hit rate near 4.3%.

What do the screens show for `CC(=O)c1ccc(OC(=O)C(CCS(C)(=O)=O)N2C(=O)c3ccccc3C2=O)cc1` (stereo not given)?
Beta cell apopt: -9; A1 inh: -0.2; Calb FLC: 21; RanGTP-Impb inh: 1.5; LANA-H2A inh: -2.7; B2AR ag: -1; UCH37 inh: 0.0; T cruzi repl: -13

Results for Cc1oc(-c2cccc(Cl)c2)nc1CSCC(=O)O ?
Beta cell apopt: -1; A1 inh: -0.2; Calb FLC: 5; RanGTP-Impb inh: 0.5; LANA-H2A inh: 5.1; B2AR ag: -1; UCH37 inh: 3.7; T cruzi repl: -11

How did Cc1cc(NC(=O)Nc2ccc(Cl)c(Cl)c2)no1 do in these assays?
Beta cell apopt: -1; A1 inh: 0.3; Calb FLC: -26; RanGTP-Impb inh: inconclusive; LANA-H2A inh: -6.7; B2AR ag: -4; UCH37 inh: 5.5; T cruzi repl: 30

How did Cc1ccc2cc(CCNC(=O)c3ccc4c(c3)OCO4)c(=O)[nH]c2c1C do in these assays?
Beta cell apopt: -3; A1 inh: 0.1; Calb FLC: 7; RanGTP-Impb inh: 3.5; LANA-H2A inh: -2.3; B2AR ag: 0; UCH37 inh: 0.7; T cruzi repl: 4

Results for CCCn1c(=O)c(C(=O)NNS(=O)(=O)c2ccc(NC(=O)OC)cc2)c(O)c2ccccc21 ?
Beta cell apopt: -2; A1 inh: 0.6; Calb FLC: -2; RanGTP-Impb inh: -2.2; LANA-H2A inh: -0.2; B2AR ag: -3; UCH37 inh: -1.0; T cruzi repl: 3

What do the screens show for `COc1ccc(S(=O)(=O)NCc2cccnc2)cc1Br`?
Beta cell apopt: 44; A1 inh: -0.4; Calb FLC: -4; RanGTP-Impb inh: -1.9; LANA-H2A inh: 3.8; B2AR ag: -1; UCH37 inh: -1.8; T cruzi repl: 6

Results for COc1ccc(S(=O)(=O)N2CCOCC2)cc1NC(=O)CCNC(=O)c1ccc(Br)cc1 ?
Beta cell apopt: 38; A1 inh: -0.6; RanGTP-Impb inh: 4.4; LANA-H2A inh: -5.0; B2AR ag: 8; UCH37 inh: 4.4; T cruzi repl: 9

How did C=CCNC(=O)CN1CCC(c2nc3ccccc3[nH]2)CC1 do in these assays?
A1 inh: -0.1; Calb FLC: -1; RanGTP-Impb inh: -1.1; LANA-H2A inh: 0.9; B2AR ag: -9; UCH37 inh: 0.1; T cruzi repl: 7

What do the screens show for `O=[N+]([O-])c1cc(C(F)(F)F)cc([N+](=O)[O-])c1NN=C1CCCCC1`?
Beta cell apopt: 0; A1 inh: 0.0; Calb FLC: 3; RanGTP-Impb inh: -5.4; LANA-H2A inh: 2.0; B2AR ag: -2; UCH37 inh: 1.4; T cruzi repl: 8

What do the screens show for `O=C(O)c1cccc(NS(=O)(=O)c2ccc(NC(=O)c3ccco3)cc2)c1`?
Beta cell apopt: -5; A1 inh: 0.6; Calb FLC: -8; RanGTP-Impb inh: -3.3; LANA-H2A inh: -2.4; B2AR ag: -6; UCH37 inh: 2.2; T cruzi repl: -18

How did O=C(CCCOc1ccc(Cl)cc1Cl)NNC(=O)c1ccc(NC(=O)c2ccccc2)cc1 do in these assays?
Beta cell apopt: -4; A1 inh: 0.8; Calb FLC: 3; RanGTP-Impb inh: 0.7; LANA-H2A inh: 2.6; B2AR ag: -3; UCH37 inh: -8.6; T cruzi repl: -5

What do the screens show for `CN(C(=O)COc1ncnc2c1cnn2-c1ccccc1)C1CCCCC1`?
Beta cell apopt: -10; A1 inh: 0.6; Calb FLC: 27; RanGTP-Impb inh: 0.9; LANA-H2A inh: 0.6; B2AR ag: -3; UCH37 inh: -0.1; T cruzi repl: -5

How did COc1ccc(OC)c(C(=O)CN2C(=O)NC(C)(c3ccccc3)C2=O)c1 (stereo not given) do in these assays?
Beta cell apopt: -8; A1 inh: 0.6; Calb FLC: -6; RanGTP-Impb inh: -2.7; LANA-H2A inh: -8.3; B2AR ag: 1; UCH37 inh: -5.8; T cruzi repl: 1

Results for COc1cccc(OC)c1OCCN(C)C ?
Beta cell apopt: -4; A1 inh: 0.9; Calb FLC: -3; RanGTP-Impb inh: -2.4; LANA-H2A inh: 4.0; B2AR ag: 5; UCH37 inh: 0.6; T cruzi repl: -11

How did O=C(Cc1cccs1)N/N=C/C(Cl)=C/c1ccccc1 do in these assays?
Beta cell apopt: -7; A1 inh: -2.4; Calb FLC: 7; RanGTP-Impb inh: 2.9; LANA-H2A inh: -3.0; B2AR ag: 0; T cruzi repl: 13

How did C/C=C/C(=O)OCC(=O)Nc1nc2ccc(C)cc2s1 do in these assays?
Beta cell apopt: 3; A1 inh: -0.6; Calb FLC: -5; RanGTP-Impb inh: -3.8; LANA-H2A inh: -0.2; B2AR ag: -1; UCH37 inh: -1.5; T cruzi repl: -5

What do the screens show for `Cc1ccc(CNC(N)=S)cc1`?
Beta cell apopt: -8; A1 inh: -0.7; Calb FLC: -2; RanGTP-Impb inh: -2.1; LANA-H2A inh: -0.8; B2AR ag: 1; UCH37 inh: 1.1; T cruzi repl: -10

Results for COc1cc(C)ccc1Oc1nc(-c2ccccc2O)nc2ccccc12 ?
Beta cell apopt: 5; A1 inh: -0.5; Calb FLC: -3; RanGTP-Impb inh: 0.8; LANA-H2A inh: 0.6; B2AR ag: -3; UCH37 inh: 2.6; T cruzi repl: -5

What do the screens show for `O=C(CN1CCCCC1)N1CCc2ccccc21`?
Beta cell apopt: -4; A1 inh: 0.2; Calb FLC: -13; RanGTP-Impb inh: -1.0; LANA-H2A inh: -6.4; B2AR ag: -10; UCH37 inh: 3.1; T cruzi repl: -8

What do the screens show for `CCOC(=O)[C@@H]1[C@H]2COc3ccc(Br)cc3[C@H]2N2C(=O)N(c3ccc(Br)cc3)C(=O)[C@]12C`?
Beta cell apopt: -5; A1 inh: 1.1; Calb FLC: 3; RanGTP-Impb inh: -3.4; LANA-H2A inh: 0.4; B2AR ag: 2; UCH37 inh: -0.4; T cruzi repl: 5

What do the screens show for `CCOC(=O)c1c(C)c(C(=O)Nc2ccc(N(C)C)cc2)c(C)n1CC`?
Beta cell apopt: 17; A1 inh: 1.4; Calb FLC: -25; RanGTP-Impb inh: -1.8; LANA-H2A inh: -0.4; B2AR ag: -3; UCH37 inh: 4.9; T cruzi repl: -7

What do the screens show for `Cc1c(NC(=O)c2cc3c(s2)CCCC3)c(=O)n(-c2ccccc2)n1C`?
Beta cell apopt: -1; A1 inh: -1.0; Calb FLC: -3; RanGTP-Impb inh: -2.0; LANA-H2A inh: 6.1; B2AR ag: -5; UCH37 inh: 3.3; T cruzi repl: -7

Results for CN1C(=O)CC(C(=O)O)SC1=Nc1cc(Cl)cc(Cl)c1 (stereo not given) ?
Beta cell apopt: -9; A1 inh: 0.3; Calb FLC: 4; RanGTP-Impb inh: -4.5; LANA-H2A inh: -8.1; B2AR ag: 7; UCH37 inh: -0.5; T cruzi repl: 10

Results for COc1ccc(/C=N/Nc2nc(N3CCCC3)nc(N3CCCC3)n2)c(OC)c1OC ?
Beta cell apopt: 2; A1 inh: 0.3; Calb FLC: inconclusive; RanGTP-Impb inh: inconclusive; LANA-H2A inh: 4.3; B2AR ag: -2; T cruzi repl: 1

How did O=C(c1cc(S(=O)(=O)N2CCOCC2)ccc1Cl)N1CCOCC1 do in these assays?
Beta cell apopt: -8; A1 inh: 0.9; Calb FLC: -6; RanGTP-Impb inh: inconclusive; LANA-H2A inh: 1.2; B2AR ag: 0; UCH37 inh: 2.7; T cruzi repl: -9

Results for CCc1cc(CNC(=O)c2ccc3nc(Cc4ccc(OC)c(OC)c4)oc3c2)on1 ?
Beta cell apopt: 107*; A1 inh: -1.2; Calb FLC: 9; RanGTP-Impb inh: 1.3; LANA-H2A inh: 4.8; B2AR ag: -3; UCH37 inh: 1.6; T cruzi repl: -8

How did CCN(CC)S(=O)(=O)c1ccc2oc(Nc3ccc(OC)cc3OC)nc2c1 do in these assays?
Beta cell apopt: 7; A1 inh: -0.1; Calb FLC: 0; RanGTP-Impb inh: -2.4; LANA-H2A inh: 2.1; B2AR ag: 13; UCH37 inh: -0.9; T cruzi repl: 10

Results for Cc1cccn2c(=O)c3cc(C(=O)N4CCN(C(=O)c5ccco5)CC4)n(C)c3nc12 ?
Beta cell apopt: -6; A1 inh: -1.0; Calb FLC: -5; RanGTP-Impb inh: -1.6; LANA-H2A inh: -2.6; B2AR ag: -6; UCH37 inh: inactive; T cruzi repl: -2

Results for CCOC(=O)c1cnc(-n2nc(C)cc2C)nc1NCCc1ccccc1 ?
Beta cell apopt: 57; A1 inh: 1.0; Calb FLC: 3; RanGTP-Impb inh: -1.4; LANA-H2A inh: -1.5; B2AR ag: -8; UCH37 inh: -5.0; T cruzi repl: 55*

What do the screens show for `Cc1ccsc1/C=N/NC(=O)CO`?
Beta cell apopt: -1; A1 inh: 0.6; Calb FLC: 37; RanGTP-Impb inh: -1.4; LANA-H2A inh: -0.6; B2AR ag: -4; T cruzi repl: -8

How did CCc1ccc(N2C(=O)CN(Cc3cccs3)C2=S)cc1 do in these assays?
Beta cell apopt: 0; A1 inh: -1.0; Calb FLC: 8; RanGTP-Impb inh: -0.1; LANA-H2A inh: active; B2AR ag: 2; UCH37 inh: -1.3; T cruzi repl: 16

What do the screens show for `Nc1nc(SCC(=O)O)[nH]c(=O)c1NC(=O)c1ccccc1F`?
Beta cell apopt: -1; A1 inh: inconclusive; Calb FLC: inconclusive; RanGTP-Impb inh: -3.0; LANA-H2A inh: -1.9; B2AR ag: 1; UCH37 inh: 0.1; T cruzi repl: -2

What do the screens show for `Cc1ccc(C2(C)CC(C)(C)N(C(=O)CSc3nnc(C)s3)c3ccccc32)cc1` (stereo not given)?
Beta cell apopt: 20; A1 inh: 0.3; Calb FLC: 4; RanGTP-Impb inh: 5.3; LANA-H2A inh: -1.8; B2AR ag: -3; UCH37 inh: 2.2; T cruzi repl: 22

What do the screens show for `O=S1(=O)N=CN(Cc2cccc(F)c2)c2ccccc21`?
Beta cell apopt: -4; A1 inh: 0.0; Calb FLC: -14; RanGTP-Impb inh: -1.5; LANA-H2A inh: 1.3; B2AR ag: 8; UCH37 inh: 2.8; T cruzi repl: -8

Results for COc1ccccc1C(=O)O/N=C(/C)c1ccc(N2C(=O)C3CCCCC3C2=O)cc1 (stereo not given) ?
Beta cell apopt: 3; A1 inh: -0.5; Calb FLC: -3; RanGTP-Impb inh: -0.2; LANA-H2A inh: -7.2; B2AR ag: -8; T cruzi repl: -7

What do the screens show for `O=S(=O)(c1ccc2nc(SCc3ccc(Cl)cc3)[nH]c2c1)N1CCOCC1`?
Beta cell apopt: -4; A1 inh: 0.7; Calb FLC: 15; RanGTP-Impb inh: 0.7; LANA-H2A inh: -1.4; B2AR ag: 3; UCH37 inh: 6.6; T cruzi repl: -7

What do the screens show for `CN(CC(=O)NC(=O)NC1CCCCC1)CC(=O)Nc1ccc(OC(F)(F)F)cc1`?
Beta cell apopt: 16; A1 inh: 0.6; LANA-H2A inh: 0.8; B2AR ag: 12; UCH37 inh: 3.2
